Screening results from PubChem.
Sfp inh – qHTS Assay for Inhibitors of Bacillus subtilis Sfp phosphopantetheinyl transferase (PPTase). Biochemical Sfp PPTase activity, qHTS. Potency, µM, without a hit: max response, negative = inhibition, usual class: inhibitors. 4'-phosphopantetheinyl transferase ffp (Bacillus subtilis), Q9F4F7. 3.5% of 310,000 active. AID 1490, 2009; active means well fitted inhibition curve with a large enough effect; inconclusive means small, poorly fitted or top-dose-only effect, or another doubt; inactive means no such curve, though single readings can be large or run the other way;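 further: the enzyme is Sfp with the accession as filed and its product quenches rhodamine fluorescence; potency means the concentration at half of the fitted maximal effect; 0% = enzyme reaction without inhibitor and -100% = no enzyme wells; top concentration of the series not given in the record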
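After 15 min at room temperature with compound, 15 nM Sfp received 5 uM rhodamine-CoA plus 12.5 uM BHQ-2-ybbR (50 mM Hepes pH 7.6, 10 mM MgCl2). Rate came from the fluorescence difference over 30 min, ex 525/em 598 nm.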
Menin MLL FP FL – qHTS Assay for Inhibitors Targeting the Menin-MLL Interaction in MLL Related Leukemias: Competition With Fluorescein Labeled MLL-derived Peptide; Fluorescence polarization, fluorescein-MLL peptide displacement from menin; FP activity change, % at 61.4 µM; 290,000 tested, under 10 active; AID 1766, 2009; inconclusive = falling polarisation curve, or a change in total fluorescence; inactive = total fluorescence flat and polarisation flat or rising; no compound was filed as active; the % refers to the polarisation; negative = inhibition;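 further: % of control where 0% means no effect; inhibitors lower the polarisation; unlabelled MLL peptide was the positive control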
The depositor's hits bear a star; ? = inconclusive; & = joins results of further samples; [ ] = dose if it differs, or a comment.

The line under a structure holds: Sfp inh | Menin MLL FP FL
CCCCCCCCN=C(N)c1ccc(C(=O)OCC2CCCCC2)cc1
  ? | 4.2
CNc1nc(-c2cccc(NS(C)(=O)=O)c2)nc2ccccc12
  28.6% | -0.9
COCC(=O)N1CCC2(CC1)CCN(c1ncccn1)CC2
  35.5%[activator] | 0.2
NCC[C@H](O)C(=O)N[C@@H]1C[C@H](N)[C@@H](O[C@H]2O[C@H](CN)CC[C@H]2N)[C@H](O)[C@H]1O[C@H]1O[C@H](CO)[C@@H](O)[C@H](N)[C@H]1O
  3.2% | -5.8
CCOC(=O)C1=CC2(CC)CCCN3CCc4c(n1c1ccccc41)C32 (stereo not drawn)
  ? | -5.9
CC(=O)SC[C@@H](Cc1ccccc1)C(=O)NCC(=O)OCc1ccccc1
  19.9% | 2.0[24.8 µM]
OC1OC[C@H](O)[C@@H](O)[C@@H]1O (stereo partly drawn)
  1.2% | 2.4
COC(=O)N1CCC[C@@]2(CCN(Cc3cc(C(F)(F)F)cc(C(F)(F)F)c3)C2)C1
  16.1% | 2.8
CCCCCC(=O)O[C@H](CC(=O)O)C[N+](C)(C)C
  -14.0% | 1.6
N=C(N)SCCN=C(N)N
  2.8% | 5.4

The results go on:
The line under a structure holds: Sfp inh | Menin MLL FP FL
O=c1cnc2cnc(Nc3ccccc3)nc2n1C1CC1
  13.5% | 8.2
COC(=O)[C@@]1(Cc2ccccc2)[C@H]2c3cc(C(=O)N(C)C)n(CCN4CNCC4=O)c3C[C@H]2CN1C(=O)c1ccccc1
  8.0% | 3.6
COCCn1c(=O)c(-c2ccccc2)nc2cnc(N(C)C)nc21
  5.7% | -10.8
N#CCCn1c(=O)c(-c2cc(F)cc(F)c2)nc2cnc(Oc3cccc(Cl)c3)nc21
  -0.1% | 1.7
Cn1c(=O)c(-c2ccccc2)nc2cnc(OCc3ccccc3)nc21
  -4.7% | 4.0
COc1ccc(-n2c(=O)c(-c3ccc(F)cc3)nc3cnc(N4CCNCC4)nc32)cc1
  4.0% | -0.7
c1cncc(CNc2ncncc2-c2cccnc2)c1
  3.0% | -8.3
C=CCOC(=O)C(C(C)=O)C(NC(=O)OC)c1ccc(Cl)cc1 (stereo not drawn)
  12.2% | 1.8[11.7 µM]
Cn1cccc1C(=O)N1CCC[C@@]2(CCN(C(=O)Nc3cccc(F)c3)C2)C1
  15.1% | 0.8
CC(C)(C)NC[C@H](O)COc1cccc2c1CCC(=O)N2
  11.6% | -1.5[24.8 µM]

Single records (already shown). Order of screens: Sfp inh, Menin MLL FP FL
Cn1cccc1C(=O)N1CCC[C@@]2(CCN(C(=O)Nc3cccc(F)c3)C2)C1 as listed: 15.1%, 0.8
CCCCCC(=O)O[C@H](CC(=O)O)C[N+](C)(C)C as listed: -14.0%, 1.6
OC1OC[C@H](O)[C@@H](O)[C@@H]1O (stereo partly drawn) as listed: 1.2%, 2.4

The list continues.
The line under a structure holds: Sfp inh | Menin MLL FP FL
COc1cc2c(cc1OC)C(c1ccccc1)CN(C)CC2 (stereo not drawn)
  -0.8% | -2.0
COc1ccccc1-c1oc2ccccc2c(=O)c1O
  5.3% | ?
Cc1noc(C)c1-c1nccc(NCc2ccccc2)n1
  ? | 0.9
C=CCc1ccccc1OC[C@H](O)CNC(C)C
  3.0% | -0.7[24.8 µM]
O=C(c1ccncc1)N1CCC2(CCCN(C(c3ccccc3)c3ccccc3)C2)CC1
  -1.0% | 5.7
c1ccc(-c2ccc(OCCN3CCCC3)cc2)cc1
  -16.8% | 5.2
C[C@@H](CN(C)C[C@H]1C(=O)O[C@@H]2C[C@@]3(C)CCC[C@]4(CO4)C3CC21)[C@H](O)c1ccccc1 (stereo partly drawn)
  -5.5% | -0.7
CCOc1ccc(C(=O)c2ccc(O)c(O)c2O)cc1
  50.1µM* | 0.8
Clc1ccccc1CNCC1CCC(CNCc2ccccc2Cl)CC1 (stereo not drawn)
  -0.8% | -18.8
NCCNc1cccc2ccccc12
  70.8µM* | -0.6

Carrying on:
The line under a structure holds: Sfp inh | Menin MLL FP FL
C[C@]1(c2ccccc2)OC(C(=O)O)=CC1=O
  30.8%[activator] | -0.7
O=C(Nc1cccc(F)c1)N1CC[C@@]2(CCCN(C(=O)c3cc(C(F)(F)F)cc(C(F)(F)F)c3)C2)C1
  8.7% | 14.2
CC(C)C[C@@H](NC(=O)[C@@H](O)[C@H](N)Cc1ccccc1)C(=O)O
  13.5% | -2.8
O=C(Nc1ccccc1)N1CC2(CCN(C(=O)c3cccc(F)c3)CC2)C1
  6.8% | -3.8
NCCC[C@@H](CC(=O)N[C@@H]1CCCC[C@H]1C(=O)N[C@H](CC(=O)N[C@@H](CCC(=O)O)CC(=O)O)Cc1ccccc1)NC(=O)C[C@H](Cc1c[nH]c2ccccc12)NC(=O)[C@@H]1CNCC[C@H]1N
  -15.1% | -3.0
CCCCC/C=C\C\C=C/C=C/C=C/[C@@H](SCC(NC(=O)CCC(N)C(=O)O)C(=O)NCC(=O)O)[C@@H](O)CCCC(=O)O (stereo partly drawn)
  -1.6% | -0.7
Clc1ccc(-c2nc3sccn3c2/C=N/OCc2ccc(Cl)c(Cl)c2)cc1
  -12.1%&-24.5%&9.1% | 4.4
COc1ccc2c(c1)O[C@H](c1ccc3c(c1)OCO3)[C@@H](OC(=O)Nc1ccc(OC(F)F)cc1)C2=O
  -5.4% | 5.8
CC[N+]1(C)[C@@H]2CC[C@H]1CC(OC(=O)[C@H]1CC[C@@](C(=O)OC3C[C@H]4CC[C@@H](C3)[N+]4(C)CC)(c3ccccc3)c3ccccc31)C2 (stereo partly drawn)
  -1.8% | -5.4[24.8 µM]
CC(C)=CCC/C(C)=C/CC/C(C)=C/CC/C=C(\C)CC/C=C(\C)CCC=C(C)C
  -0.7% | -0.6

(list continues)
The line under a structure holds: Sfp inh | Menin MLL FP FL
NCCC[C@@H](CC(=O)N[C@@H]1CCCC[C@H]1C(=O)N[C@H](CC(=O)N[C@@H](CCC(=O)O)CC(=O)O)Cc1c[nH]c2ccccc12)NC(=O)C[C@H](CO)NC(=O)[C@@H]1CCCC[C@H]1N
  6.7% | -2.8
N#Cc1cccc(CS(=O)(=O)c2ccccc2)c1
  -8.6% | -0.2
CCCc1cc2c(n1Cc1cc(F)cc(F)c1)C(C)C1CN(C(=O)c3ccccc3)C(C)(C(=O)OC)C21 (stereo not drawn)
  3.2% | 9.0
C=CCOC(=O)C(C(C)=O)C(NC(=O)OC)c1ccc2ccccc2c1 (stereo not drawn)
  -8.3% | -1.1[11.7 µM]
COc1ccc(NC(=O)N2CC3(CCN(S(=O)(=O)c4ccccc4)CC3)C2)cc1
  14.8% | -2.7
COc1c(O)cc2c(-c3ccccc3)cc(=O)oc2c1OC
  -1.8% | 1.7
Cc1cc(O)c(C)c2sc(N)nc12
  -15.1% | -8.3
O=c1cnc2cnc(Oc3ccccc3)nc2n1C[C@H]1CCCO1
  1.1% | 8.3
Cc1cc2cc(C)c3nnc(SCC(=O)N4CCc5ccccc54)n3c2cc1C
  -0.7% | 1.4
COc1cc(-c2oc3cc(O)cc(O)c3c(=O)c2O[C@@H]2O[C@H](CO)[C@@H](O)[C@H](O)[C@H]2O)ccc1O
  1.8% | 12.8

Other compounds.
The line under a structure holds: Sfp inh | Menin MLL FP FL
COc1ccc(-n2c(=O)c(CCc3ccccc3)nc3cnc(OC)nc32)cc1
  21.3% | -1.0
CC(=O)O[C@H](C(=O)O[C@@H]1C[C@@H](CCC[C@H]2O[C@H](C(=O)OC(C)C)CC[C@@H]2C)O[C@@H](CC#N)C1)c1ccccc1
  -3.1% | -5.0
CCC(=O)N[C@@H]1CCc2cccc(OC)c2C1
  -6.1% | -7.6
COC(F)(F)C(Cl)Cl
  6.3% | 4.3
COc1cc(C2c3cc4c(cc3C(O)[C@H]3COC(=O)C23)OCO4)cc(OC)c1OC (stereo partly drawn)
  13.1%&-5.2% | -0.6&1.5
COc1ncc2nc(-c3ccccc3)c(=O)n(CCC#N)c2n1
  2.8% | -0.4
COC(=O)N1CCC[C@@]2(CCN(C(=O)Nc3cccc(C#N)c3)C2)C1
  10.3% | -1.2
CC[C@@](N)(C(=O)O)c1ccc(C(=O)O)cc1
  -4.7% | ?
CS(=O)(=O)Nc1cccc(-c2cncnc2NCc2cccs2)c1
  ? | -4.9
COc1cc2c(cc1OC)Cc1cc(OC)c(OC)cc1Cc1cc(OC)c(OC)cc1C2
  1.5% | 0.4

(further entries)
The line under a structure holds: Sfp inh | Menin MLL FP FL
Cc1noc(C)c1C(=O)N1CCC2(CC1)CN(Cc1cc(C(F)(F)F)cc(C(F)(F)F)c1)C2
  17.1% | -7.5
COC(=O)C[C@@H]1O[C@H]1[C@H](C)[C@@H](OC)C(C)C
  10.6% | 2.4[11.7 µM]
CN(Cc1ccco1)c1ncnc2ccc(-c3cccc(NS(C)(=O)=O)c3)cc12
  -5.9% | -1.4
O=C1OC2(c3cc(I)c(O)c(I)c3Oc3c2cc(I)c(O)c3I)c2c(Cl)c(Cl)c(Cl)c(Cl)c21
  ? | ?
CC1CCC2(OC1)OC1CC3C4CC[C@@H]5CC(O)CC[C@@]5(C)C4CC(=O)[C@]3(C)C1C2C (stereo partly drawn)
  -30.7% | -0.4
N#Cc1ccc(CN2CC3(CCN(C(=O)c4csnn4)CC3)C2)cc1
  4.3% | -0.7
COc1ccc(-c2nc3cnc(N4CCN(C)CC4)nc3n(Cc3cccc(OC)c3)c2=O)cc1
  -21.9% | -18.8
CS(=O)(=O)Nc1cccc(-c2nc(NCCN3CCOCC3)c3ccccc3n2)c1
  4.1% | -0.1
Cc1c(O)ccc2c1OCO2
  6.8% | 1.4[11.7 µM]
O=c1c(-c2cccs2)nc2cnc(Oc3ccccc3)nc2n1-c1ccccc1
  -8.9% | ?

Following part:
The line under a structure holds: Sfp inh | Menin MLL FP FL
S=c1[nH]c2ccccc2s1
  11.5%&-53.5% | -0.7&5.3
CC[C@]1(C)CC(=O)NC1=O
  22.2% | 1.6[24.8 µM]
COC(=O)c1ccccc1S(=O)(=O)N1CCc2nc(-c3ccccc3)c3c(c2C1)CO[C@@H](C)C3
  -17.4% | 5.6[11.7 µM]
COCCn1c(=O)c(C)nc2cnc(OCc3ccccc3)nc21
  32.8%[activator] | 17.3
CN1CCN(c2ncc3nc(-c4ccc(F)cc4)c(=O)n(Cc4cccs4)c3n2)CC1
  -20.5% | -20.5
CO[C@@]12C[C@@H](COC(=O)c3cncc(Br)c3)CN(C)[C@H]1Cc1cn(C)c3cccc2c13
  -2.1%&18.0% | ?
COc1cccc(-c2ccc3ncnc(NCc4cccnc4)c3c2)c1
  11.5% | 4.0
COc1cc2c(cc1O)CCN[C@@]21CS[C@H]2c3c(OC(C)=O)c(C)c4c(c3C(COC1=O)N1C2C2c3c(cc(C)c(OC)c3O)CC([C@@H]1O)N2C)OCO4 (stereo partly drawn)
  ? | -1.0
CC1=C(/C=C/C(C)=C/C=C/C(C)=C/C=C/C=C(C)/C=C/C=C(C)/C=C/C(=O)[C@]2(C)C[C@@H](O)CC2(C)C)C(C)(C)C[C@H](O)C1
  -1.6% | -0.9
O=C(O)C1CCC[C@@H]2[C@@H]3CC(CN12)[C@@H]1CCCCN1C3 (stereo partly drawn)
  7.1% | 2.4

Later entries:
The line under a structure holds: Sfp inh | Menin MLL FP FL
CC(=C(CCOP(=O)(O)O)SC(=O)c1ccccc1)N(C=O)Cc1cnc(C)nc1N
  11.8%&21.2% | -0.3
Cc1noc(C)c1-c1nc(NC2CC2)c2ccccc2n1
  22.2% | -0.3
O=C(NCCc1ccccc1)c1cccc(Br)n1
  -18.5% | -4.8[94.6 µM]
C[C@]12CCC3c4ccc(OC(=O)c5ccccc5)cc4CCC3C1CCC2=O (stereo partly drawn)
  -5.3% | -1.0
COc1ncc2nc(CCc3ccccc3)c(=O)n(C3CC3)c2n1
  5.3% | -1.4
CCN1C(C)=C(C(=O)OC)C(c2ccccc2)N2C(=O)[C@](O)(C(=O)OC)C(c3ccccc3)C(C(C)=O)=C12 (stereo partly drawn)
  1.0% | -2.2[11.7 µM]
CC(=O)Nc1ccc(OC(C)=O)cc1
  -0.7% | -4.0
CC(=O)C1CCC2C3CCC4=CC(=O)CC[C@@]4(C)C3CC[C@]12C (stereo partly drawn)
  -14.8% | 3.3
CCN(CC)CCCCn1c(-c2ccccc2)nc2c(N3CCOCC3)nc(C)nc21
  39.5% | 1.5
Cc1nc(N2CCOCC2)c2nc(-c3ccccc3)n(CCN3CCCC3)c2n1
  -2.4% | -2.8

(list continues)
The line under a structure holds: Sfp inh | Menin MLL FP FL
CC(C)CN1CCCC2(CCN(C(=O)c3cnccn3)CC2)C1
  23.4% | -7.1
CCCn1c(C)nc2c(NCCCN(CC)CC)nc(C)nc21
  10.9% | -7.2
O=S(=O)(O)CC(S)CS (stereo not drawn)
  2.82µM* | -0.5
Oc1ccc(C2Oc3cc(O)cc(O)c3CC2O)cc1 (stereo not drawn)
  1.6% | ?
CC(=O)NCCNc1cc(-c2ccccc2CN(C)C)ncn1
  9.3% | 0.8
CC1(C)CCC[C@@](C)([C@H]2CC[C@]3(C)[C@@H]2[C@H](O)CC2[C@@]4(C)CC[C@H](O)C(C)(C)[C@@H]4[C@@H](O)C[C@]23C)O1 (stereo partly drawn)
  5.0% | -1.5
COC(=O)CC1c2ccccc2C(Cc2ccc(OC)cc2)=C(C)N1C(=O)OC (stereo not drawn)
  -6.7% | -9.8[11.7 µM]
C[C@@](Cc1ccccc1)(C(=O)O)N1C(=O)c2ccc(C(=O)O)cc2C1=O
  -2.6% | -0.6

A portion of the library; rates above refer to the full screens.
